HSD17B inhib: inhibitors of human HSD17B10 dehydrogenase; Q99714; recombinant HSD17B10, NADH fluorescence kinetic; many of its hits are not listed in these tables; Potency, µM (highest dose often 57.1 µM), for inactives: top-dose activity change, negative = inhibition, hits mostly inhibitors; hit rate 7.6% among 75,000; AID 893; active means well fitted inhibition curve with a large enough effect; inconclusive means small, poorly fitted or top-dose-only effect; inactive means no such curve, though single readings can be large or run the other way;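 further: the protocol describes HADH2 (HSD17B10) and not the HSD17B4 of the title; nearly all actives have a fitted effect of over 70% in size; most hits overshoot -100% by far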
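20 nM HADH2, pH 9.0 Tris/Tween; cpd preinc 15 min RT; start w/ 1 mM NAD+ + 90 uM b-hydroxybutyryl-CoA; kinetic fluor ex360/em450 q30s x 4 min; delta last-first.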
An asterisk follows results filed as active; ? = inconclusive; [ ] = remark or other dose. On the % scale 0 is the no-effect control and ±100 the full control effect; potency means the concentration at half of the fitted maximal effect. These rows are one share of the data; rates above refer to the full screens.

SMILES,HSD17B inhib
COc1cc(N2C(=O)c3ccccc3C2=O)c(Cl)cc1C(=O)OCC(=O)NCc1ccco1,-12%
Cc1nnc2n1N=CC=C(C(C)(C)C)S2,7%
CCCCC(=O)NCCc1cc2ccc(OC)cc2[nH]c1=O,?
O=c1c2oc3ccccc3c2ncn1Cc1ccccc1Cl,5%
O=C(Nc1ccc2nsnc2c1)c1ccc2c(c1)OCO2,?
CCCNC(=O)c1ccccc1C(=O)NCCC,1%
CC(C)(C)OC(=O)NCCCCCc1nnc(SCC(=O)Nc2cccc(Cl)c2)o1,0%
CC(=O)OC/C=C(C)/C=C/C=C(C)/C=C/C1=C(C)CCCC1(C)C,40µM*
Cc1ccc2c(CC(=O)O)coc2c1C,8%
Cc1nn(CC(=O)N(C)C)c(=O)c2ccccc12,1%
Cc1ccc2cc(CN(C(=O)C3CCCO3)C3CCCCC3)c(=O)[nH]c2c1 (stereo unspecified),?
C=CCn1c(SCc2cc(=O)n3ccsc3n2)nc2scc(C3CC3)c2c1=O,-21%
COc1cc2c3cc1Oc1cc(ccc1O)C[C@@H]1c4c(cc(OC)c(O)c4Oc4ccc(cc4)C[C@H]3[N+](C)(C)CC2)CC[N+]1(C)C,2%[11.4 µM]
Cc1ccc(C)n1/N=C1/NC(=O)CS1,?
O=C(Cc1ccccc1I)Nc1ccccc1,20%
CCOC(=O)N1CCN(C(=O)c2cc(Cl)c(Cl)cc2C(=O)O)CC1,4%
CC(C)(CN)CN,1%[11.4 µM]
COCc1c(Br)c(C)nc(OCC(=O)O)c1C#N,10%
O=C1NC(c2ccccc2)(C(F)(F)F)SC2=CCCCCN12 (stereo unspecified),8%
CCOC(=O)CNc1c(-c2ccc(O)cc2)nc2ccccn12,32µM*
Nc1ccc2nc(-c3ccc(Cl)cc3)[nH]c2c1,25µM*
O=C(c1ccc2c(c1)OCO2)N(c1ccccc1)C1C=CS(=O)(=O)C1 (stereo unspecified),-10%
Cc1ccc(OCC(=O)NCCN2CCCC2)cc1,1%
CCOC(=O)N1CCN(C(=O)C2CCCN(S(C)(=O)=O)C2)CC1 (stereo unspecified),2%
c1ccc2c(NCCN3CCOCC3)nc(-c3ccc4c(c3)OCO4)nc2c1,-23%
Cc1cc(C)cc(Nc2cc(C)nc3nc(C)nn23)c1,-1%
CN1C(=O)C(O)(CC(=O)c2ccc(F)cc2)c2cc(Br)ccc21 (stereo unspecified),-4%
CCN(CC)CCCNc1nnc(C)c(=O)[nH]1,8%
CNc1nc(-c2c(C)noc2C)nc2ccccc12,?
Fc1ccc(NCc2nnc(SCc3nnc(-c4ccccc4)o3)n2CC2CCCO2)cc1 (stereo unspecified),-10%

Given field by field: part of the list above.
SMILES: O=c1c2oc3ccccc3c2ncn1Cc1ccccc1Cl
  HSD17B inhib: 5%

SMILES: O=C(Nc1ccc2nsnc2c1)c1ccc2c(c1)OCO2
  HSD17B inhib: ?

Gathered by group: the entries above with a furan ring, fused or not.
SMILES,HSD17B inhib
COc1cc(N2C(=O)c3ccccc3C2=O)c(Cl)cc1C(=O)OCC(=O)NCc1ccco1,-12%
O=c1c2oc3ccccc3c2ncn1Cc1ccccc1Cl,5%
Cc1ccc2c(CC(=O)O)coc2c1C,8%

(next part)
SMILES,HSD17B inhib
N#Cc1ccc(CN2CCCC3(CCN(S(=O)(=O)c4ccccc4)CC3)C2)cc1,0%
CCCCOc1ccc(C(=O)Nc2ccncc2)cc1,-3%
COc1ccc(S(=O)(=O)NCCCCNS(=O)(=O)c2ccc(OC)cc2)cc1,5%
CCn1ncc(C2=NOC(C(=O)N3CCC(C(N)=O)CC3)C2)c1C (stereo unspecified),4%
CCOC(=O)c1c(C)n(CC(O)c2ccccc2)c2ccc(O)cc12 (stereo unspecified),3%
CCOC(=O)Cc1cc(=O)[nH]c(Nc2nc3ccccc3o2)n1,-8%
CCC(C)(C)n1nnnc1CN1CCC(c2nc3ccc(C)cc3[nH]2)CC1,-4%
CCn1nc(C(=O)N2CCc3ccccc3C2)c2ccccc2c1=O,-1%
COc1cc(OC)c(C2Oc3nc(SC)nnc3-c3ccccc3N2C(C)=O)cc1OC (stereo unspecified),-6%
CCCn1c(/N=C/c2cc(OC)ccc2O)nc2ccccc21,13%
CC(C)c1ccccc1NC(=O)c1ccco1,2%
O=C(COc1cc(Cl)c(Cl)cc1Cl)Nc1ccncc1,-4%
OCCCN1c2ccccc2Nc2nnc(-c3ccccc3)cc21,?
Cc1ccc(C(=O)OCC(=O)Nc2ccc3c(c2)OCO3)o1,3%
CC(C)c1nc(SCC(=O)Nc2cccc(C(F)(F)F)c2)c2c(=O)n(C)c(=O)n(C)c2n1,14%
Cc1cc(=O)[nH]c(Cc2ccc(OC(C)C)cc2)n1,4%
CSc1ccc(S(=O)(=O)Nc2c(C)cccc2C)cc1,-5%
CCOC(=O)N1CCN(C(=O)Cc2ccc(-n3c(=S)[nH]c4ccccc4c3=O)cc2)CC1,0%
COc1cc2nc(SCC(=O)NCCc3ccccc3)n(Cc3ccco3)c(=O)c2cc1OC,-10%
C[C@@H](/C=C\c1cccc(Oc2ccc(F)cc2)c1)N(O)C(N)=O,-7%
O=C(Oc1ccc(-c2ccccc2)cc1)N1CCOCC1,-3%
CCCn1c(SCC(=O)Nc2ccc3c(c2)OCCO3)nnc1-c1ccco1,3%
COc1ccc(-c2nc(N)ncc2Oc2ccccc2Br)c(O)c1,1%
O=C(CN1CCN(c2ccccn2)CC1)NCc1cccs1,?
Cc1cccn2c(=O)c(C=Nc3c(C)n(C)n(-c4ccccc4)c3=O)c(N3CCCC3)nc12,5%
COC(=O)[C@@]1(Cc2ccccc2)[C@H]2c3cc(C(=O)N4CCCC4)n(Cc4ccc(C(F)(F)F)nc4)c3C[C@H]2CN1C(=O)c1ccccc1,3%
CCC(C)NC(=O)C1CCC(=O)N1Cc1ccc(C)cc1 (stereo unspecified),-1%
CC1=C(C(=O)OCc2ccccc2)C(c2ccc(C(F)(F)F)cc2)NC(=O)N1CCCCCC(=O)O (stereo unspecified),0%
CCOC(=O)C1=C(C)Nc2nc(SCC)[nH]c(=O)c2C1c1ccncc1 (stereo unspecified),-1%
Cc1ccc(Oc2ccc(-c3nc(N)nc(N)n3)cc2)cc1,-4%

As entered above.
Reading of `c1ccc2c(NCCN3CCOCC3)nc(-c3ccc4c(c3)OCO4)nc2c1` under HSD17B inhib: -23%
Reading of `Cc1nnc2n1N=CC=C(C(C)(C)C)S2` under HSD17B inhib: 7%
Reading of `Cc1ccc(OCC(=O)NCCN2CCCC2)cc1` under HSD17B inhib: 1%
Reading of `CCn1ncc(C2=NOC(C(=O)N3CCC(C(N)=O)CC3)C2)c1C` (stereo unspecified) under HSD17B inhib: 4%
Reading of `Cc1ccc2c(CC(=O)O)coc2c1C` under HSD17B inhib: 8%
Reading of `Cc1cccn2c(=O)c(C=Nc3c(C)n(C)n(-c4ccccc4)c3=O)c(N3CCCC3)nc12` under HSD17B inhib: 5%
Reading of `Nc1ccc2nc(-c3ccc(Cl)cc3)[nH]c2c1` under HSD17B inhib: 25µM*

Further structures
SMILES,HSD17B inhib
O=C(CN1C(=O)CSC1=O)NC1CCCCC1,9%
CCOC(=O)c1c(C)c(C(=O)NCc2cccnc2)c(C)n1CC,1%
CCC(=O)Nc1ccc(NC(=O)c2ccccn2)cn1,-4%
O=C(c1ccco1)N1CCC(c2nc(-c3ccccc3Cl)no2)CC1,5%
CCCC(=O)Nc1ccc(N2CCOCC2)cc1,4%
CCOC(=O)c1oc2ccccc2c1NC(=O)c1ccc2c(c1)OCO2,?
CCN(CC)CCCNC(=O)N[C@@H](Cc1ccccc1)C(=O)O,11%
COc1cc(-c2noc(CCC(N)=O)n2)cc(OC)c1OC,-2%
O=C(Cn1ncnn1)OCc1ccccc1Cl,9%
N#Cc1nc(Cc2cccc3ccccc23)oc1NCC1CCCO1 (stereo unspecified),-4%
COCCCNC(=O)C12CCC(C)(C(=O)C1)C2(C)C (stereo unspecified),10%
COc1ccccc1N1CCN(CC(=O)Nc2cccc(F)c2)CC1,12%
O=C(NC1CC2CCCC(C1)N2C(=O)NC1CCCCC1)c1ccc(F)cc1 (stereo unspecified),7%
O=C(O)c1cc(Cl)c(Cl)cc1C(=O)N1CCOCC1,3%
Cc1ccc(CNC(=O)CCS(=O)(=O)c2cccc3nsnc23)cc1,-3%
CC(NC(=O)COc1cccc(Br)c1)C(=O)O (stereo unspecified),3%
NC(=O)C[C@@H](N)c1nn[nH]n1,-1%[11.4 µM]
O=C(CC1Oc2ccccc2NC1=O)NCCCN1CCOCC1 (stereo unspecified),-1%
CCN(C(=O)CSc1nc2cc(C(=O)OC)ccc2c(=O)n1Cc1ccco1)c1cccc(C)c1,-5%
CC1CCc2c(sc3ncn4c(SCC(=O)NCc5ccco5)nnc4c23)C1 (stereo unspecified),-12%
O=C(NCC(c1cccnc1)N1CCN(c2ccccc2)CC1)c1ccco1 (stereo unspecified),9%
CC12CN3CC(C)(CN(C1)C31C(=O)N(Cc3ccccc3)c3ccccc31)C2=O (stereo unspecified),9%
Cc1oc2cc(O)ccc2c(=O)c1Oc1ccccc1,32µM*
Cc1ccccc1/C=C\C1=NCCN1,-4%
O=C(O)CCCNS(=O)(=O)c1ccc(NCc2ccccc2)c(C(=O)O)c1,?
Cc1cc(NC(=O)COC(=O)C2CCN(C(=O)c3ccc(Cl)cc3)CC2)no1,-2%
CCCCn1c(N)c(N(CC)C(=O)c2ccc3c(c2)S(=O)(=O)c2ccccc2C3=O)c(=O)[nH]c1=O,8%
CC1=[N+]([O-])C(C)(C)CC(C)(C)c2ccccc21,9%
O=C(Nc1ccc2nc(-c3cccs3)[nH]c2c1)c1cccs1,25µM*
O=C(O)C(Cc1cc2ccccc2[nH]1)N1C(=O)C2CC=C(Cl)CC2C1=O (stereo unspecified),9%
COC(=O)[C@@]1(Cc2ccc(F)cc2)[C@H]2c3cc(C(=O)N4CCCC4)n(C[C@H](O)CO)c3C[C@H]2CN1C(=O)c1ccccc1,-5%
c1ccc(Oc2cccc(OCCn3cncn3)c2)cc1,4%
Cc1cccc(-c2nc(CSCC(=O)NCCCN3CCOCC3)c(C)o2)c1,-18%
CCOC(=O)c1ccccc1NC(=O)CSc1nnc(Cc2cccn2C)n1-c1ccc(F)cc1,-9%
Cc1ccc(NC2=CC(=O)CC(C)(C)C2)cc1C,1%
COc1ccc(C2C(C#N)=C(/N=C/N3CCN(C)CC3)OC3=C2C(=O)CC(C)(C)C3)cc1 (stereo unspecified),8%
CCCCS(=O)CC(COc1ccc(Cl)cc1)OC(=O)c1ccccc1 (stereo unspecified),-15%
COc1ccccc1CNC(=O)CCCN1C(=O)COc2ccc(C)cc21,6%
Cc1ccc(-c2nnc(-c3ccc(Br)cc3)o2)o1,0.63µM*
CCCCOC(=O)CCn1[nH]c(=O)c2ccccc2c1=O,8%
CCOC(=O)c1cnc(-n2nc(C)cc2C)nc1N(C)C,-13%
Cc1noc(C)c1S(=O)(=O)NCCc1ccc(S(N)(=O)=O)cc1,0%
CCSc1nnc2c(n1)OC1(CCCC1)Nc1ccccc1-2,-5%
COc1ccccc1N1CCN(C(c2cc3ccc(C)cc3[nH]c2=O)c2nnnn2C2CCCC2)CC1 (stereo unspecified),?
O=C1CC(Sc2ncccn2)C(=O)N1c1ccccc1C(F)(F)F (stereo unspecified),-11%
CCN(C(=O)c1cnc(N2CCN(c3ncccn3)CC2)c2ccccc12)c1cccc(Cl)c1,32µM*
c1csc(-c2nc(-c3ccncc3)no2)c1,7%
COc1ccc(Cn2c(C)nc3oc4cc(OC)ccc4c(=O)c3c2=O)cc1,-13%
COc1ccc(N2C(=O)CC(N3CCOCC3)C2=O)cc1 (stereo unspecified),-1%
COc1ccc(-n2c(Cc3cccn3C)nnc2SCC(=O)Nc2ccccc2)cc1,-2%
CC(=O)c1ccc(NC(=O)C(C)Sc2nnnn2C)cc1 (stereo unspecified),-8%
CC(C)OCCCNC(=O)C1CCN(S(=O)(=O)N2CCCCC2)CC1,6%
Cc1nc(Nc2cccc(C(F)(F)F)c2)nc2c1C(=O)CC(C)C2 (stereo unspecified),-2%
Cc1ccccc1-n1c(Cn2c(=O)sc3ccccc32)nnc1SCC(N)=O,1%
CC(=O)NC(Cc1c[nH]c2ccccc12)C(=O)NCc1ccc2c(c1)OCO2 (stereo unspecified),4%
COCCCNC(=O)Nc1ccc(Br)cc1Cl,5%
CCOC(=O)c1cccc2c1-c1ccccc1/C2=N/O,-9%
CCOc1cc(N2CCOCC2)c(OCC)cc1NC(=O)COc1cccc2cccnc12,2%
CCc1nnc(NC(=O)c2c(OC)cccc2OC)s1,4%
O=C(CSc1nnc(Cn2nnc(-c3ccccc3)n2)n1-c1ccccc1)Nc1ccc(F)cc1,1%
CC(C)NC(=O)c1cc2cc(Br)ccc2oc1=O,5%
O=C(O)c1ccncc1.O=C(O)c1ccncc1.[Cl][Pt]([Cl])([Cl])[Cl],-11%[11.4 µM]
